# Screening results (PubChem BioAssay)
# LASV entry inh: Lassa virus entry inhibition; AID 540256; Lassa virus pseudotype entry inhibition, cell reporter; control for the full effect not named in the record; Potency, µM (series often up to 37.9 µM), for the others: at the highest dose activity change, negative = inhibition, most hits filed as inhibitors; 1.2% of 300,000 active; active means well fitted inhibition curve with a large enough effect; inconclusive means small, poorly fitted or top-dose-only effect, or effect the other way; inactive means flat fitted curve, though single readings scatter; tested in HEK293 cells; note: % is set by controls: 0 for no effect and ±100 for the full control effect; nearly all actives have a fitted effect of over 50% in size; luciferase read-out
# NS1 function inh: blocks influenza NS1 protein function; S. cerevisiae slowed by influenza A NS1, growth recovery by OD600; Potency, µM (top dose mostly 46.1 µM), for inactives: at the highest dose activity, positive = more growth; 0.4% of 270,000 active; AID 2326; note: actives are rising curves; nearly all actives have a fitted effect of over 50% in size
#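 OD600 was taken as the measure of yeast growth restored by compound in an NS1-expressing S. cerevisiae strain. Cells had been washed out of glucose medium and diluted 1:100 into galactose -URA medium, pH 6.0.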
# RE007 growth inh: less growth of the S. pombe RE007 Vpr strain; S. pombe RE007 Vpr strain, BacTiter-Glo ATP luminescence, 24 h; control for the full effect not named in the record; Potency, µM (highest dose often 92.2 µM), without a hit: at the highest dose activity change, negative = less growth; 0.21% of 360,000 active; active = well fitted falling curve with a large enough effect; inconclusive = small, poorly fitted or top-dose-only effect; inactive = no such curve, though single readings can be large or run the other way;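 note: % is set by controls: 0 for no effect and ±100 for the full control effect; nearly all actives have a fitted effect of over 50% in size; the assay follows cell death caused by Vpr and the record does not say whether a fall means rescue or toxicity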
#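 Fission yeast RE007 carrying one integrated HIV-1 vpr copy, seeded at OD 0.01 in PMG+AL medium with 23 nL pinned compound. Grown 24 h at 30 degrees; viability read by BacTiter-Glo luminescence after 5 min.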
# Marburg entry inh: blocks Marburg virus binding to or entry into cells; Marburg virus pseudotyped entry inhibition, cell reporter; control for the full effect not named in the record; about a third of the inactives were read at about 46 µM; Potency, µM (highest dose often 37.8 µM), without a hit: top-dose activity change, negative = inhibition, usual class: inhibitors; 1.8% of 300,000 active; active = well fitted inhibition curve with a large enough effect; inconclusive = small, poorly fitted or top-dose-only effect, or effect the other way; inactive = flat fitted curve, though single readings scatter; tested in HEK293 cells; about a fifth of its hits are not listed in these tables; note: % is set by controls: 0 for no effect and ±100 for the full control effect; luciferase read-out
# SARS PLP yeast: inhibitors of SARS-CoV papain-like protease in yeast | 0.19% of 330,000 active | Potency, µM (top dose mostly 32.9 µM), inactives show top-dose activity, positive = growth rescue | AID 485353 | S. cerevisiae expressing SARS-CoV PLpro, growth rescue; control for the full effect not named in the record; note: 0% is about no effect; nearly all actives have a fitted effect of over 55% in size; growth read by luminescence after 48 h
# Cruzain Triton: blocks cruzain activity in presence of Triton detergent | Potency, µM, without a hit: max response, negative = inhibition, most hits filed as inhibitors | purified cruzain, Z-FR-AMC fluorescence, 0.01% Triton | AID 1478 | 0.43% of 200,000 active; active = well fitted curve in the direction sought with a large enough effect; inconclusive = small, poorly fitted or top-dose-only effect, or another doubt; inactive = no such curve, though single readings can be large; an effect the other way counts as inactive or inconclusive;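 note: plate controls were neutral wells for no effect and buffer without enzyme for full effect; nearly all actives have a fitted effect of over 40% in size; top concentration of the series not given in the record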
# Target sequence (P25779 123-467 limits assumed): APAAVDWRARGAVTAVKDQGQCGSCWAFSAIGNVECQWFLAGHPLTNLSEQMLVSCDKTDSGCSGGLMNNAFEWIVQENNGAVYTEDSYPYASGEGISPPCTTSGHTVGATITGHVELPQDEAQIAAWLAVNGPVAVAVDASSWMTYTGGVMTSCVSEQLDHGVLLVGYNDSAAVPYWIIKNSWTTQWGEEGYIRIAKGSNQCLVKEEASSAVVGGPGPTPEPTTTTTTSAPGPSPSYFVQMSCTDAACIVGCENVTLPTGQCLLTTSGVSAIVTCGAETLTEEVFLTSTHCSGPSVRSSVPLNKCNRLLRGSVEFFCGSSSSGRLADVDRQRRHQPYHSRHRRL
#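 Enzyme 1.5 nM, Z-FR-AMC 2 uM, NaOAc 100 mM pH 5.5, DTT 5 mM, Triton X-100 0.01%; 15 min RT compound preincubation; kinetic ex360/em450, 60 s delta.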
# Cruzain inh noDet: blocks cruzain activity in detergent-free assay; purified cruzain, Z-FR-AMC fluorescence, no detergent; 2.3% of 200,000 active; Potency, µM, inactives show max response, negative = inhibition, usual class: inhibitors; AID 1476; active = well fitted curve in the direction sought with a large enough effect; inconclusive = small, poorly fitted or top-dose-only effect, or another doubt; inactive = no such curve, though single readings can be large; an effect the other way counts as inactive or inconclusive;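 note: plate controls were enzyme without inhibitor for no effect and buffer without enzyme for full effect; nearly all actives have a fitted effect of over 40% in size; top concentration of the series not given in the record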
#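 Purified cruzain at 1.5 nM, pre-incubated 15 min with compound at room temperature in 100 mM sodium acetate pH 5.5, 5 mM DTT, 0.00005% Triton X-100. Reaction started with 2 uM Z-FR-AMC; AMC fluorescence increase over 60 s gives rate.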
# 2A StopGo: lowers the luciferase signal of an FMDV 2A StopGo reporter. Potency, µM (doses to about 57.9 µM), inactives show at the top dose signal change, negative = less light. 1.2% of 410,000 active. human cells with a luciferase reporter of 2A StopGo recoding; control for the full effect not named in the record; active = well fitted falling curve with a large enough effect; inconclusive = small, poorly fitted or top-dose-only effect; inactive = no such curve, though single readings can be large or run the other way; tested in HEK293T cells; note: % is set by controls: 0 for no effect and ±100 for the full control effect; nearly all actives have a fitted effect of over 45% in size; luciferase light after 4 h
# An asterisk follows results filed as active; ? = inconclusive; . = not tested or not shown; & = joins results of further samples; [ ] = dose if it differs, or a comment. Unless noted, calls come from the whole dose curve; as a rule, active means well fitted rising curve with a large enough effect; inconclusive means small, poorly fitted or top-dose-only effect; inactive means no such curve, though single readings can be large or run the other way. Potency is the fitted concentration of half-maximal effect.
SMILES,LASV entry inh,NS1 function inh,RE007 growth inh,Marburg entry inh,SARS PLP yeast,Cruzain Triton,Cruzain inh noDet,2A StopGo
CCOc1cccc2c1OC1(C)CC2NC(=O)N1c1cccc(C(=O)NCc2ccccn2)c1 (stereo not drawn),.,0.1%,-3.3%,.,-1.4%,.,.,?
c1cc2[nH]snc2c2nc(C3CC3)nc12,-6.0%,-87.0%,1.2%,-12.8%,-35.7%,-3.2%,-14.2%,-3.4%
Cc1ccc2c(c1)N(CC(=O)NC1CCCCC1C)C(=O)CO2 (stereo not drawn),-17.0%,2.7%,-2.8%[3.69 µM],3.3%,2.3%,5.8%,-4.3%,-4.8%
Cc1ccc(S(=O)(=O)N2CCCOC2)cc1,6.6%,7.6%,3.4%,8.5%,-4.0%,2.0%,-3.9%,.
COc1ccc(OC)c(S(=O)(=O)NCCc2cn3ccsc3n2)c1,.,1.6%,-15.2%,.,25.2%,-3.8%,-9.3%,0.0%
O=C(CCC(=O)N1CCOc2ccccc21)N1CCCCC1,.,-15.2%,24.4%,.,-4.2%,.,.,-14.7%
COc1ccccc1N1CCN(c2ccc([N+](=O)[O-])nc2)CC1,27.1%[46.1 µM],-1.2%,-10.3%,23.0%[46.1 µM],0.3%,.,.,-7.9%
O=C(COc1ccccc1Br)N1CCN(C(=O)c2ccco2)CC1,9.5%[46.1 µM],-4.5%,-1.2%,1.5%[46.1 µM],1.8%,.,.,-16.3%
CC(=O)c1ccc(-c2nnc(CCC(=O)N(C)Cc3cccc4cnccc34)o2)s1,.,2.1%,-19.1%,-5.0%[46.1 µM],-1.4%,.,.,20.0%
O=C(CSc1ccccc1)Nc1cccc(S(=O)(=O)N2CCCC2)c1,?,-4.7%,-17.8%,1.3%,5.2%,-2.0%,-5.5%,32.0%[activator]
Cc1ccc(NC(=O)Nc2c(Cl)cccc2Cl)cn1,.,-7.0%,1.2%,.,-0.9%,.,.,3.4%
CCN1CCN(c2ccc(S(=O)(=O)N3CCCCC3)cc2NC(=O)/C=C/c2cc(OC)ccc2OC)CC1,?,16.1%,13.3%,?,-3.4%,.,.,-6.9%
COc1ccc(Cn2c(=O)sc3ccccc3c2=O)cc1,19.7%,.,-15.9%,-1.2%[46.1 µM],-2.3%,.,.,-12.8%
COCCNC(=O)c1cc2n(n1)CCCN(Cc1ccc(C)cc1)C2=O,9.1%[46.1 µM],.,.,.,.,-0.6%,-9.0%,12.5%
O=c1oc(/C=C/c2ccccc2)nc2ccccc12,.,3.0%,-12.8%,?,0.9%,.,.,-53.4%
O=c1[nH]cnc2ccsc12,-0.7%,.,-1.4%,11.0%[46.1 µM],-1.7%,.,.,-0.6%
NC(=O)CSc1nnc(-c2cccc(S(=O)(=O)N3CCOCC3)c2)n1C1CCCCCC1,-0.3%,-8.5%,-14.3%,-13.1%,1.5%,4.2%,?,-14.6%
CCCOC(=O)Nc1cc(OC)c(Cl)cc1OC,10.5%,?,?,3.1%,0.3%,-2.7%,-2.0%,-5.5%
Cc1nnc(NC(=O)C2(c3ccccc3)CCOCC2)s1,1.0%,-8.3%,5.8%,-0.6%,-4.9%,2.4%,0.4%,3.9%
CCc1ccc(NC(=O)c2cc(C)nn2-c2ccccc2)cc1,?,-5.3%,-8.4%,-28.6%,-2.0%,-2.6%,2.8%,8.4%&33.2%
CCC(=NCc1ccco1)c1c(O)n(-c2ccccc2C)c(=O)[nH]c1=O,-6.0%[46.1 µM],1.9%,4.9%,0.2%[46.1 µM],-0.4%,.,.,-11.2%
COc1ccc(NC(=O)CSCC(=O)N2CCN(c3cccc(C(F)(F)F)c3)CC2)cc1,-4.3%,.,-4.5%,?,-0.4%,.,.,0.0%
CSc1ccc(COC(=O)c2cc([N+](=O)[O-])ccc2N2CCOCC2)cc1,?,.,-19.4%,?,3.8%,.,.,-31.9%
Cc1ccc(N(Cc2cc(=O)[nH]c3ccccc23)C(=O)CCl)c(C)c1,?,-3.2%,5.6%,?,-1.4%,.,.,35.5µM*
Cc1ccc(-c2noc(CN(C(=O)COc3cc(C)cc(C)c3C)C(C)C)n2)cc1,-2.4%[46.1 µM],.,.,-9.3%[46.1 µM],.,-5.2%,3.7%,-22.7%
COCCNC(=O)C1CC(=O)N(CCc2ccccc2)C1 (stereo not drawn),16.5%,-2.4%,-3.5%,10.6%,-0.6%,7.7%,-2.5%,-25.9%
CN(C)S(=O)(=O)N(CC(=O)Nc1ccc(Br)cc1F)c1ccccc1,-23.4%[46.1 µM],.,.,?,.,-7.9%,2.9%,-12.8%
COc1cc(C(=O)Nc2ccc(NC(=O)C(C)C)nc2)cc(OC)c1OC,-5.0%,-4.6%,-11.4%,5.7%,-1.4%,0.3%,-1.5%,-0.9%
C=CCn1c(=O)c(C(=O)NCc2ccc(Cl)cc2)c(O)c2ccccc21,.,-0.1%,-13.8%,.,-5.2%,.,.,-28.3%
O=C(CN1CCSCC1)N/N=C/c1ccc(F)cc1F,5.6%,-22.0%,4.7%,9.6%,22.3%,0.7%,-8.6%,25.7%
O=C(Nc1ccc(N2CCOCC2)c(Cl)c1)c1ccccc1Cl,3.9%,3.5%,-6.4%,?,0.0%,.,.,50.5%[activator]
CC(C)(C)NCCCCOc1ccccc1F,?,-2.3%,-7.7%,0.5%,-1.6%,-0.9%,5.9%,.
CCOC(=O)c1ccc(N/C=C/C(=O)c2ccccc2)cc1,?,3.8%,0.3%,?,0.8%,.,.,-9.1%
O=C1OC(CO)CN1Cc1ccccc1 (stereo not drawn),5.0%,1.9%,4.6%,-5.4%,-2.6%,.,.,-8.5%
O=C(c1ccc(CS(=O)Cc2ccccc2Cl)o1)N1CCN(c2cccc(Cl)c2)CC1 (stereo not drawn),?,1.5%,-8.0%,?,-7.2%,.,.,-25.3%
Cc1ccccc1C(=O)c1cccn1CC(=O)NC(C)CCc1ccccc1 (stereo not drawn),.,-8.2%,0.6%,.,-2.4%,.,.,-6.1%
CCOC(=O)Cn1c(SC)nc2sc3c(c2c1=O)CC(C)(C)OC3,2.7%,1.3%,12.2%,18.1%,12.3%,0.6%,1.7%,-7.2%
O=C(CCN1CCc2ccccc2C1)Nc1cccc(F)c1,?,-7.8%,36.2%,-8.4%,-2.2%,3.0%,-0.5%,-1.5%
FC(F)(F)c1cnc2c(c1)Nc1ccccc1S2,23.4%,-9.0%,-16.1%,18.0%,8.0%,3.1%,?,16.0%
Cc1ccc(CN2CC(C(=O)Nc3ccncc3)CC2=O)cc1 (stereo not drawn),.,3.3%,-8.3%,.,?,.,.,-12.7%
C(=N\n1cnnc1)/c1cccc(Oc2ccccc2)c1,-0.5%,-129.7%,7.6%,-8.2%,-4.5%,-1.9%,-3.5%,-8.4%
CCc1cc2cc(C)cc(C)c2nc1SCC(=O)N1CCN(C(=O)c2ccco2)CC1,-21.1%,-78.8%,5.0%,?,?,-9.6%,?,-27.1%
CCOc1cc(C2c3c(oc4ccccc4c3=O)C(=O)N2c2ccccn2)ccc1O (stereo not drawn),4.9%[46.1 µM],.,.,-2.8%[46.1 µM],.,-2.5%,-2.9%,-7.1%
Cc1ccccc1OCC(=O)Nc1ccc(-c2nc3cc(Cl)cc(Cl)c3o2)cc1,-3.2%[46.1 µM],.,.,.,.,1.7%,-7.4%,-11.2%
N#Cc1cc2c(nc1SCC(=O)Nc1ccc(C(F)(F)F)cc1)C1CCN2CC1,-2.5%[46.1 µM],.,.,?,.,-2.1%,-3.9%,?
CC1CC(C)CN(C(=O)CN2C(=O)NC(C)(C)C2=O)C1 (stereo not drawn),?,.,-18.8%,19.9%[46.1 µM],-6.9%,.,.,-17.9%
CCc1cccc(N2C(=O)N(CC(=O)NCc3cccc(OC)c3OC)c3ccccc3S2(=O)=O)c1,?,.,.,.,.,-0.3%,?,?
O=C(CN1CCN(Cc2ccccc2Cl)CC1)N/N=C/C=C/c1ccco1,7.1%[46.1 µM],2.2%,?,-19.8%[46.1 µM],-1.6%,.,.,-16.9%
COc1ccc(/C=C/C(=O)Oc2cccc(/C=N/NC(=O)c3cccc(F)c3)c2)cc1,-24.6%,8.2%,-2.1%,?,-20.2%,0.6%,?,21.9%
Cc1ccc(CN2CCCN(Cc3ccc(F)cc3Cl)S2(=O)=O)cc1,.,-9.4%,15.3%,.,-9.0%,.,.,-0.4%
CC1CCN(c2ccc([N+](=O)[O-])cc2C(=O)O)CC1,14.0%,-2.4%,2.2%,6.1%,18.3%,-5.6%,-12.5%,-1.9%
CC1CCN(S(=O)(=O)c2ccc(C(C)C)cc2)CC1,?,1.4%,17.2%,?,0.6%,.,.,-3.1%

# Retrieved by structure from the list above, 7 records:
SMILES,LASV entry inh,NS1 function inh,RE007 growth inh,Marburg entry inh,SARS PLP yeast,Cruzain Triton,Cruzain inh noDet,2A StopGo
O=C(Nc1ccc(N2CCOCC2)c(Cl)c1)c1ccccc1Cl,3.9%,3.5%,-6.4%,?,0.0%,.,.,50.5%[activator]
CC(=O)c1ccc(-c2nnc(CCC(=O)N(C)Cc3cccc4cnccc34)o2)s1,.,2.1%,-19.1%,-5.0%[46.1 µM],-1.4%,.,.,20.0%
COCCNC(=O)c1cc2n(n1)CCCN(Cc1ccc(C)cc1)C2=O,9.1%[46.1 µM],.,.,.,.,-0.6%,-9.0%,12.5%
CCc1ccc(NC(=O)c2cc(C)nn2-c2ccccc2)cc1,?,-5.3%,-8.4%,-28.6%,-2.0%,-2.6%,2.8%,8.4%&33.2%
O=C(CCC(=O)N1CCOc2ccccc21)N1CCCCC1,.,-15.2%,24.4%,.,-4.2%,.,.,-14.7%
COc1ccc(NC(=O)CSCC(=O)N2CCN(c3cccc(C(F)(F)F)c3)CC2)cc1,-4.3%,.,-4.5%,?,-0.4%,.,.,0.0%
C(=N\n1cnnc1)/c1cccc(Oc2ccccc2)c1,-0.5%,-129.7%,7.6%,-8.2%,-4.5%,-1.9%,-3.5%,-8.4%
